# KCNQ2 block – KCNQ2 potassium channel inhibitors, primary screen, cell-based, CHO-K1, FluxOR thallium flux, B-score (AID 2156). Potassium voltage-gated channel subfamily KQT member 2 (Rattus norvegicus), O88943. actives 1.1% (n = 310,000). 20 min; stronger effect = lower value; only compounds with negative scores are shown here; some inactives read as strong as hits. B-score at 10 µM;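 active = fluorescence ratio B-score at most minus 3 library SDs, with starting brightness B-score within 2 library SDs, cut at about -5.5 in these data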
# Target sequence (O88943 whole entry, looked up): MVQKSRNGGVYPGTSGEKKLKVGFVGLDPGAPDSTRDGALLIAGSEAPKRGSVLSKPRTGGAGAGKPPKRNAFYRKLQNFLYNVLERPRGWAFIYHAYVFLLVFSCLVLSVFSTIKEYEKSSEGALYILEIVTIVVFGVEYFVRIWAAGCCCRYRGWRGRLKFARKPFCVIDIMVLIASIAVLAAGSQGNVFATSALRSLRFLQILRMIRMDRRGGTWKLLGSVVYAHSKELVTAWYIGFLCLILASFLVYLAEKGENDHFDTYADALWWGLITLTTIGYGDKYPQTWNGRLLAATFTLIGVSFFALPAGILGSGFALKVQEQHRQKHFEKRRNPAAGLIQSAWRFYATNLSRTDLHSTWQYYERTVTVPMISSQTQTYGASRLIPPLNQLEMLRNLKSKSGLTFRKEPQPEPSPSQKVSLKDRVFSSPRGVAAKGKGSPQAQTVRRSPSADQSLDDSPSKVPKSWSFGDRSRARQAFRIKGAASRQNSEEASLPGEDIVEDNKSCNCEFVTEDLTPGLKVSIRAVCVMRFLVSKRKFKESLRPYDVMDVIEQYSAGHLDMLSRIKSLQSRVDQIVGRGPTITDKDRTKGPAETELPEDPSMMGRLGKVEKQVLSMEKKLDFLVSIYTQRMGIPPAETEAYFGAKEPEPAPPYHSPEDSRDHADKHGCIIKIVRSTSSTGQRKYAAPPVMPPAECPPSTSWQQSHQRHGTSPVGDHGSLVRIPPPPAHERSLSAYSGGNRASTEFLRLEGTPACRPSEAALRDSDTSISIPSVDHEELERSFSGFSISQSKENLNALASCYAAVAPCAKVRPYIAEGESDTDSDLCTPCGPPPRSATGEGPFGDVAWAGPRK
# KCNQ2 block baseline – also measured in KCNQ2 block; calls as there; B-score; measured here: initial fluorescence intensity artifact check;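 brightness before thallium and not channel activity; 0 = typical well and far values either way flag optical interference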
# * hit, by the source's call; i = inactive.
# Order of results – KCNQ2 block, KCNQ2 block baseline
COc1ccc2oc(C(=O)OCC(=O)N(Cc3ccccc3)C(C)(C)C)c(C)c2c1
→ -9.4*, -1.76*
COC1=Cc2c(ccc3ccc(=O)oc23)OC1(C)C
→ i, -0.77
O=C(NCC(=O)N1CCN(c2ccccc2F)CC1)c1ccc(Br)o1
→ i, 0.15
O=C(NCCCc1ccccc1)c1c(O)nc2sccn2c1=O
→ i, -0.13
CC(=O)c1ccc(S(=O)(=O)N2CCN(CC#N)CC2)cc1
→ i, 0.14
COc1ccc(OCCNC(=O)c2ccccc2OCC(=O)N2CCCCC2)cc1
→ i, -1.39
COc1ccc(N2Cc3ccccc3C2=NC(=O)c2cncc(Br)c2)cc1
→ i, -0.4
CCOc1ccc(NC(=O)CN(C)C(=O)CSCc2cccc(C)c2)cc1OCC
→ i, 0.87
Cc1c(NC(=O)CCC(=O)N2CCOCC2)c(=O)n(-c2ccccc2)n1C
→ i, 1.6
Cc1ccc(C(=O)/C=C/c2cc(Br)cc(Br)c2O)o1
→ i, 0.2
CC(=O)c1coc2ccc(OCCN3CCCCC3)cc12
→ i, -0.02
O=C(Nc1ccccn1)C1CCN(S(=O)(=O)c2cccs2)CC1
→ i, 2.36
COc1ccccc1C(=O)Nc1cccc(C(=O)c2ccccc2)c1
→ i, -1.04
O=C(N/N=C/C(Cl)=C/c1ccc([N+](=O)[O-])cc1)C(=O)Nc1ccccc1C(=O)O
→ i, 1.23
CC(=O)Nc1ccc(S(=O)(=O)N(C)CC(=O)OCCOc2cccc(C)c2)cc1
→ i, 0.44
Nn1c(SCC(=O)Nc2ccc(S(N)(=O)=O)cc2)nnc1C(F)(F)F
→ i, 0.02
COc1ccc(N2CCN(C(=O)CSc3nc4cc(OC)c(OC)cc4cc3C#N)CC2)cc1
→ i, -3.05
Cc1cc(C(=O)CSc2nnnn2C)c(C)n1C1CC1
→ i, 0.61
CC(C)Sc1nc(N2CCOCC2)c2c3c(sc2n1)COC(C)(C)C3
→ i, 0.68
Cc1[nH]c2ccccc2c1C(=O)CN1C(=O)NC2(CC(C)CC(C)(C)C2)C1=O (stereo not given)
→ i, -2.38
CS/C(=C(/C#N)S(=O)(=O)c1ccc(Cl)cc1)N1CCOCC1
→ i, -0.01
CC(=O)c1ccc(NC(=O)C2CCCN2S(=O)(=O)c2cccc3cccnc23)cc1 (stereo not given)
→ i, 0.61
O=C(CCOc1ccccc1)Nc1ccnn1C1CCN(Cc2ccc(F)cc2)CC1
→ i, 2.26
CC(C)Cn1c(=O)c(C(=O)Nc2cnccn2)c(O)c2ccccc21
→ i, -0.58
O=C(CCN1C(=O)S/C(=C/c2ccccc2)C1=O)Nc1ccc(C(=O)O)c(O)c1
→ i, 1.01
CC1CCN(S(=O)(=O)c2cccc(C(=O)Nc3ccccn3)c2)CC1
→ i, -1.41
Cc1cccnc1NC(=O)c1cccc(S(=O)(=O)N2CCN(c3ccccc3)CC2)c1
→ i, 0.06
Cc1nn(C)c(Cl)c1C(=O)NCC(=O)NCc1ccccc1
→ i, 0.98
NS(=O)(=O)c1ccc(NC(=O)Cn2nc(C(=O)O)c3ccccc3c2=O)cc1
→ i, 0.48
COc1cc(/C=N/NC(=O)c2cc(-c3cccs3)nc3ccccc23)ccc1O
→ i, 0.32

# 3 entries out of the list above, arranged by their value in KCNQ2 block baseline, falling:
Compound	KCNQ2 block	KCNQ2 block baseline
O=C(N/N=C/C(Cl)=C/c1ccc([N+](=O)[O-])cc1)C(=O)Nc1ccccc1C(=O)O	i	1.23
NS(=O)(=O)c1ccc(NC(=O)Cn2nc(C(=O)O)c3ccccc3c2=O)cc1	i	0.48
CC(=O)c1ccc(S(=O)(=O)N2CCN(CC#N)CC2)cc1	i	0.14

# Grouped by structure: the entries above with bromine
# Order of results – KCNQ2 block, KCNQ2 block baseline
O=C(NCC(=O)N1CCN(c2ccccc2F)CC1)c1ccc(Br)o1
→ i, 0.15
COc1ccc(N2Cc3ccccc3C2=NC(=O)c2cncc(Br)c2)cc1
→ i, -0.4
Cc1ccc(C(=O)/C=C/c2cc(Br)cc(Br)c2O)o1
→ i, 0.2

# (next part)
# Order of results – KCNQ2 block, KCNQ2 block baseline
CCOc1ccccc1NC(=O)NCc1ccccn1
→ i, 1.2
CN(C)S(=O)(=O)c1cccc(-c2nnc(SCCNCCO)n2-c2ccc(F)cc2)c1
→ i, 0.11
CC(C)(C)Nc1cccccc1=O
→ i, -2.66
O=C(CCN1C(=O)S/C(=C\c2ccccc2)C1=O)NC1CCS(=O)(=O)C1 (stereo not given)
→ i, -1.49
O=C(NC1CCCCC1)C(c1cccs1)N(CCCN1CCOCC1)C(=O)c1ccc(-c2ccccc2)[nH]1 (stereo not given)
→ i, 0.45
Cc1ccc(Cn2c(SCC(=O)N3CC(=O)Nc4ccccc43)nc3ccccc3c2=O)cc1
→ i, -0.1
CCN(CC)C(=O)c1cc2cc([N+](=O)[O-])ccc2s1
→ i, 1.52
Cc1ccnc(NC(=O)c2cccc(OC(F)F)c2)n1
→ i, 1.73
Cn1c(SCc2ccccc2)nnc1-c1cccs1
→ i, -0.82
CC(C)Cn1c(SCC(=O)N2CCN(C(=O)c3ccco3)CC2)nc2ccccc2c1=O
→ i, 3.52
COc1ccc(-c2nnc(N(C)C(=O)c3cccnc3)s2)cc1
→ i, -0.18
O=C(NCCc1ccccc1)c1nnc(CS(=O)(=O)c2ccccc2)o1
→ i, -0.08
Cc1cc(C)c2oc(-c3ccc(C)c(NC(=S)NC(=O)c4cccs4)c3)nc2c1
→ i, 1.01
CCOc1ccc(NC(=O)CSc2nnc(C3CC3)n2N)cc1
→ i, -1.17
COc1ccc(C2CC(=O)c3c(ccc4ccccc34)N2)cc1OC (stereo not given)
→ i, -1.65
Cn1c2ccccc2c2ncn(CCC3=CCCCC3)c(=O)c21
→ i, 0.1
N#CC(C#N)=Cc1c[nH]c(=O)c(C#N)c1Nc1ccccc1
→ i, 1.51
Cc1cc(C)cc(OCC(=O)Nc2ccc(F)cc2)c1
→ i, 0.54
Nn1c(-c2cccc(Br)c2)n[nH]c1=S
→ i, 1.3
CC(C)CC(OC(=O)c1cccs1)C(=O)NCc1ccco1 (stereo not given)
→ i, -1.14
C=CCSc1n[nH]c(-c2ccc(OC)cc2)n1
→ i, 2.23
Cc1cccc(CC(=O)NC2CCN(C)CC2)c1
→ i, 1.56
Cc1cc(SCc2ccc(Cl)c(Cl)c2)nc(=O)[nH]1
→ i, -0.6
O=C(O)Cc1csc(NC(=O)CSc2nnnn2-c2ccc(O)cc2)n1
→ i, -1.33
CC1N(O)C(C)(C)C(c2ccccc2)=[N+]1[O-] (stereo not given)
→ i, 1.59
Cc1c(C(=O)N2CCC(C(N)=O)CC2)sc(N)c1C#N
→ i, -1.28
CC(=O)N(c1nc(CCl)cs1)c1ccc(C)cc1C
→ i, -0.5
Cc1ccc(C(=O)CSc2nnnn2C(C)C)c(C)c1
→ i, 0.39
Cc1ccc(N2CC(C(=O)N3CCC(C(=O)Nc4nnc(C(C)C)s4)CC3)CC2=O)cc1 (stereo not given)
→ i, 0.94
CN(C)CCCn1cnc2c1c(=O)[nH]c(=O)n2Cc1ccccc1
→ i, -0.01
O=C(CSc1ncccc1C(=O)O)c1ccccc1F
→ i, 1.84
COc1cc(NC(=O)c2cc(-n3cnnc3)ccc2Cl)cc(OC)c1
→ i, 1.45
O=C(NCc1ccccc1)C(c1cccnc1)N(C(=O)c1ccccn1)c1cccc(F)c1 (stereo not given)
→ i, 1.11
C[C@H](NC(=O)c1nc[nH]c1C(=O)N[C@@H](CCCCNC(=O)OC(C)(C)C)C(=O)OC(C)(C)C)C(=O)OC(C)(C)C
→ i, -0.1
Cc1cccc(OCC(=O)Nc2ccc(N3CCN(C(=O)c4ccccc4)CC3)cc2)c1
→ i, -0.45
CCN(Cc1ccccc1)C(=O)c1cc(S(=O)(=O)N2CCOCC2)ccc1N1CCCC1
→ i, 0.35
CCc1nc2c(c(=O)c3ccccc3n2C)c(=O)n1C1CCCCCC1
→ i, 0.65
CC(NC(=O)c1ccc(F)cc1)C1CC2CCC1C2 (stereo not given)
→ i, -0.37
Cc1ccc(S(=O)(=O)N(c2nc(N(C)C)nc(N(C)C)n2)n2cnnc2)cc1
→ i, 3.2
CCC(C)NC(=O)c1ccc2nc(-c3ccc(OC)c(OC)c3)c(-c3ccc(OC)c(OC)c3)nc2c1 (stereo not given)
→ i, 0.12
Cc1ccc(NC(=O)CSCC(=O)NCCc2ccccn2)c(C)c1
→ i, -0.09
CN(Cc1ccccc1)C(=O)c1c[nH]c2ccc(S(=O)(=O)N3CCOCC3)cc2c1=O
→ i, 1.86
Cc1nc2nc(SCc3ccccc3)[nH]n2c(=O)c1CCC(C)C
→ i, 0.22
COc1ccc(OC(=O)Cc2cccc3ccccc23)cc1
→ i, 1.63
CCC(C)(C)NC(=O)C(c1ccncc1)N(C(=O)c1sc(C)nc1C)c1ccc(C)cc1 (stereo not given)
→ i, 1.51
CCC(C)C(NC(N)=O)C(=O)Nc1ccc(C)c(Cl)c1 (stereo not given)
→ i, -1.69
CCOc1ccc(-c2nc(CSCC(=O)N3CCN(c4cccc(OC)c4)CC3)c(C)o2)cc1
→ i, -0.76
COc1ccccc1N1CCN(C(=O)c2ccc3c(=O)n(Cc4ccco4)c(=S)[nH]c3c2)CC1
→ i, -0.1
C=CCNC(=O)c1ccc2nccnc2c1
→ i, 0.05
O=[N+]([O-])c1cc([N+](=O)[O-])c(Oc2ccccc2F)cc1NN1CCCCC1
→ i, -1.09
O=C(O)CCC(=O)N1N=C(c2c(-c3ccccc3)c3cc(Cl)ccc3[nH]c2=O)CC1c1cccs1 (stereo not given)
→ i, -0.44
CC(=O)c1cccc(NC(=S)NC(=O)c2ccc(C)cc2)c1
→ i, 1.13
C=CCC1Cc2c(Br)cccc2C(CC=C)N1 (stereo not given)
→ i, -2.18
CC(C)n1c(Nn2cnnc2)nc2ccccc21
→ i, 0.69
C=CCc1c(C)[nH]c(=S)c(C#N)c1C
→ i, -0.29
O=C(CS(=O)CC(=O)N(CC(=O)NC1CCCC1)C1CCCCC1)Nc1ccc(F)cc1 (stereo not given)
→ i, 0.35
O=C1C=C(NCCNc2c(F)c(F)c(CO)c(F)c2F)CCC1
→ i, 0.99
Nc1ccn(C2CC(O)C(CO)O2)c(=O)n1 (stereo not given)
→ i, 0.36
COC(=O)c1ccc(OC(=O)C2CC(=O)N(c3cccc(C)c3)C2)cc1 (stereo not given)
→ i, 0.45
C/C(=N\N=C(/N)SC1CC(=O)N(c2ccccc2)C1=O)c1cccs1 (stereo not given)
→ i, -1.07

# Pulled one by one from the entries so far (2):
# Order of results – KCNQ2 block, KCNQ2 block baseline
CCOc1ccc(-c2nc(CSCC(=O)N3CCN(c4cccc(OC)c4)CC3)c(C)o2)cc1
→ i, -0.76
CS/C(=C(/C#N)S(=O)(=O)c1ccc(Cl)cc1)N1CCOCC1
→ i, -0.01

# Additional compounds.
# Order of results – KCNQ2 block, KCNQ2 block baseline
O=C(Nc1ccc(F)cc1)C(c1ccccc1)N1CCN(S(=O)(=O)c2ccccc2)CC1 (stereo not given)
→ i, -1.02
Cc1cccc([C@@H]2[C@@H]3C(=O)N(Cc4ccccc4)C(=O)[C@@H]3[C@]3(Cc4ccccc4)C(=O)N(c4ccccc4)C(=O)N23)c1
→ i, 0.02
NC(=O)CN1C(=O)C(=O)N(Cc2ccccc2)C1=O
→ i, -0.72
CC1CCCN(CCC(=O)Nc2ccc3c(c2)CCC3)C1 (stereo not given)
→ i, 3.77
O=C(Nc1ccccc1C(=O)O)c1cc(S(=O)(=O)N2CCOCC2)cs1
→ i, 0.56
CCc1ccc(C2c3[nH]c4ccccc4c3CCN2C(=O)c2ccc(=O)n(C)n2)cc1 (stereo not given)
→ i, -0.34
CC1(C)NC(C)(C)c2nonc2/C1=N\O
→ i, -0.04
Nc1nonc1-n1nnc(C(=O)c2ccccc2)c1-c1ccccc1
→ i, -0.29
CC(=O)Nc1ccc(C2NC(=S)N(c3ccccc3C(F)(F)F)C(C)=C2C(=O)N2CCOCC2)cc1 (stereo not given)
→ i, -1.41
CCOC(=O)c1cn2nc(Oc3ccc(C(=O)OC)cc3)ccc2n1
→ i, 0.03
CC(=O)NC(=S)Nc1cccc([N+](=O)[O-])c1
→ i, -0.55
CC(Oc1ccccc1)C(=O)Nc1cccc(F)c1 (stereo not given)
→ i, 0.01
O=C(CC1Oc2ccccc2NC1=O)NC1CC1 (stereo not given)
→ i, -1.42
O=C(c1ccccc1)N1N=C(c2ccccc2)CC1c1ccccc1O (stereo not given)
→ i, 1.8
CC(C)N(Cc1nc(-c2ccccc2)no1)C(=O)Cc1ccccc1
→ i, 0.54
CC(=O)c1cccc(N2C(=NC(=O)C3CCCCC3)SC3CS(=O)(=O)CC32)c1 (stereo not given)
→ i, -1.06
CCN(CC)S(=O)(=O)c1ccc(NC(=O)c2cnc(C)cn2)cc1
→ i, 1.25
COc1ccc(CNC(=O)CSc2nnc(Cn3nnc4ccccc43)n2C)cc1
→ i, 0.18
O=C(Nc1ccc2c(c1)OCCO2)c1cc2ccccc2o1
→ i, -2.19
CSC1=C(C#N)C(c2ccccc2Cl)C(C(C)=O)=C(C)N1 (stereo not given)
→ i, -1.02
COc1ccc(NC(=O)c2ccc(C)cc2)c(OC)c1
→ i, -0.32
COc1ccc(CN2CCC(Cc3ccccc3)CC2)c(C)c1C
→ i, 1.26
COC(=O)C(Cc1ccccc1)NC(=O)CSc1nc(N)cc(=O)[nH]1 (stereo not given)
→ i, 1.21
CC(=O)Oc1ccc(C(=O)Nc2cc(NC(=O)c3ccc(OC(C)=O)cc3)cc(C(=O)NC(C)(C)C)c2)cc1
→ i, -1.42
COCC1CCCCN1C(=O)c1ccc(OC2CCN(Cc3ccccn3)CC2)cc1 (stereo not given)
→ i, 2.12
Cc1ccc(C(=O)N2CCCC(CCC(=O)N3CCN(c4ccccn4)CC3)C2)cc1C (stereo not given)
→ i, 2.06
Cc1ncc([N+](=O)[O-])n1CCOC(=O)Nc1ccc([N+](=O)[O-])cc1
→ i, 0.08
Cc1[nH]c2ccc(C(=O)N3CCN(c4ccccc4Cl)CC3)cc2c1C
→ -6.55*, 0.97*

# Some of the compounds tested (hit frequency here may not be typical).
